From PubChem BioAssay
TAR Tat displ: HIV-1 TAR-Tat binding disruption | AID 1259389 | HIV-1 TAR RNA, Tat peptide displacement FRET; hits give high values | 100,000 compounds, 0.6% hits | z-score (test concentration not listed);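 further: score is relative to mean and SD of negative controls; some compounds called inactive have numbers as strong as hits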
CDC25B-CDK2 inh: human CDC25B-CDK2/CyclinA binding inhibition | P30305+P24941 | HTRF CDC25B-CDK2/CyclinA binding, anti-His/anti-Flag; hits give high values | z-score (no concentration beside the values) | 94,000 compounds, 0.72% hits;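 further: score is relative to mean and SD of negative controls; strong numbers were not always called active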
Active calls of the source: *; · = no result given; & = joins results of further samples.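 How the source made its calls: active means z-score from 3 up in half or more of its runs; inactive means the rest.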 Some of the compounds tested. The share of hits here may be higher or lower than overall.

The opening 18 entries, to show the layout:
Under each structure – TAR Tat displ | CDC25B-CDK2 inh
> COc1ccc(C(=O)NCc2ccc(OCCN(C)C)cc2)cc1OC
    -2.08 | ·
> OCCN1CCN(CCCN2c3ccccc3Sc3ccc(Cl)cc32)CC1
    1.72 | -3.92
> Cc1c(NC(=O)c2cccnc2)c(=O)n(-c2ccccc2)n1C
    1.16 | -1.65
> O=C(CCNNC(=O)c1ccncc1)NCc1ccccc1
    0.99 | -1.59
> O=C(NCCCn1ccnc1)c1cc(-c2ccco2)on1
    -0.02 | 0.1
> CCN(CC)CCNC(=O)c1cc(Cl)c(N)cc1OC
    · | 7.56
> CN(C)CCOC(C)(c1ccccc1)c1ccccn1 (configuration not stated)
    0.5&0.62 | -2.68
> CN1CCOC(c2ccccc2)c2ccccc2C1 (configuration not stated)
    1.31 | ·
> CCOC(=O)c1ccc(N)cc1
    0.2 | ·
> CC(=O)NC(Cc1ccccc1)C(=O)O (configuration not stated)
    2.08 | ·
> C[C@@H]1CC2C3C[C@H](F)C4=CC(=O)C=C[C@]4(C)[C@@]3(F)[C@@H](O)C[C@]2(C)[C@@]1(O)C(=O)COC(=O)C(C)(C)C (some centres not stated)
    0.58 | ·
> Cc1cc(-c2ccccc2)nnc1NCCN1CCOCC1
    -1.87 | ·
> NC(=O)c1cn(Cc2c(F)cccc2F)nn1
    · | -0.35
> O=C1c2ccc(O)c(O)c2C(=O)c2c(O)ccc(O)c21
    1.02 | ·
> CCN(CC)CCn1c(=O)c(Cc2ccc(OC)cc2)nc2ccccc21
    · | -1.23
> COc1cc(O)c2c(=O)cc(-c3ccc(OC)c(-c4c(O)cc(O)c5c(=O)cc(-c6ccc(O)cc6)oc45)c3)oc2c1
    1.58 | ·
> CN1CCN(C(c2ccccc2)c2ccccc2)CC1
    3.01 | ·
> CN(C(=O)CCCOc1ccc2[nH]c(=O)ccc2c1)C1CCCCC1
    · | -0.78

The listing, previewed entries included:
Under each structure – TAR Tat displ | CDC25B-CDK2 inh
> COc1ccc(C(=O)NCc2ccc(OCCN(C)C)cc2)cc1OC
    -2.08 | ·
> OCCN1CCN(CCCN2c3ccccc3Sc3ccc(Cl)cc32)CC1
    1.72 | -3.92
> Cc1c(NC(=O)c2cccnc2)c(=O)n(-c2ccccc2)n1C
    1.16 | -1.65
> O=C(CCNNC(=O)c1ccncc1)NCc1ccccc1
    0.99 | -1.59
> O=C(NCCCn1ccnc1)c1cc(-c2ccco2)on1
    -0.02 | 0.1
> CCN(CC)CCNC(=O)c1cc(Cl)c(N)cc1OC
    · | 7.56
> CN(C)CCOC(C)(c1ccccc1)c1ccccn1 (configuration not stated)
    0.5&0.62 | -2.68
> CN1CCOC(c2ccccc2)c2ccccc2C1 (configuration not stated)
    1.31 | ·
> CCOC(=O)c1ccc(N)cc1
    0.2 | ·
> CC(=O)NC(Cc1ccccc1)C(=O)O (configuration not stated)
    2.08 | ·
> C[C@@H]1CC2C3C[C@H](F)C4=CC(=O)C=C[C@]4(C)[C@@]3(F)[C@@H](O)C[C@]2(C)[C@@]1(O)C(=O)COC(=O)C(C)(C)C (some centres not stated)
    0.58 | ·
> Cc1cc(-c2ccccc2)nnc1NCCN1CCOCC1
    -1.87 | ·
> NC(=O)c1cn(Cc2c(F)cccc2F)nn1
    · | -0.35
> O=C1c2ccc(O)c(O)c2C(=O)c2c(O)ccc(O)c21
    1.02 | ·
> CCN(CC)CCn1c(=O)c(Cc2ccc(OC)cc2)nc2ccccc21
    · | -1.23
> COc1cc(O)c2c(=O)cc(-c3ccc(OC)c(-c4c(O)cc(O)c5c(=O)cc(-c6ccc(O)cc6)oc45)c3)oc2c1
    1.58 | ·
> CN1CCN(C(c2ccccc2)c2ccccc2)CC1
    3.01 | ·
> CN(C(=O)CCCOc1ccc2[nH]c(=O)ccc2c1)C1CCCCC1
    · | -0.78
> COc1ccc(N2CCN(C(=O)c3sc4ncccc4c3-n3cccc3)CC2)cc1
    -0.19 | ·
> CC(=O)c1ccc(S(=O)(=O)NC(=O)NC2CCCCC2)cc1
    · | -0.34
> CC12CCC(CC1)C(C)(C)O2
    1.78 | ·
> COc1ccc(/C=C/C(=O)Nc2ccccc2C(=O)O)cc1OC
    2.51 | -0.42
> C=CC1=C(C(=O)O)N2C(=O)[C@@H](NC(=O)/C(=N\O)c3csc(N)n3)[C@H]2SC1 (stereo in doubt)
    -0.39 | ·
> CC(=O)O[C@]1(C(C)=O)CCC2C3C=C(Cl)C4=CC(=O)[C@@H]5C[C@@H]5[C@]4(C)C3CC[C@@]21C (some centres not stated)
    -0.42 | ·
> Cn1c(=O)c2[nH]c(Br)nc2n(C)c1=O
    · | -0.78
> COc1ccc(C(=O)CC(=O)c2ccc(C(C)(C)C)cc2)cc1
    0.93 | ·
> O=C(NCCc1c[nH]c2ccccc12)c1cccnc1
    · | -1.47
> CC1Cn2cc(C(=O)NCCN3CCN(C)CC3)c(=O)c3c(Cl)ccc(c32)O1 (configuration not stated)
    0.9 | ·
> CC(=O)c1ccc2c(c1)N(CCCN(C)C)c1ccccc1S2
    · | -1.92
> CSc1cccc(N2C(=O)c3ccc(-c4ccco4)n3CC2(C)C(=O)NC2CCCC2)c1 (configuration not stated)
    -4.74 | ·

> c1ccc(CC2=NCCN2)cc1
- TAR Tat displ: -0.11
- CDC25B-CDK2 inh: ·

> COc1cc([C@H]2Oc3cc([C@@H]4Oc5cc(O)cc(O)c5C(=O)[C@@H]4O)ccc3O[C@@H]2CO)ccc1O
- TAR Tat displ: 1.59
- CDC25B-CDK2 inh: ·

> C1CCC(C(CC2CCCCN2)C2CCCCC2)CC1 (configuration not stated)
- TAR Tat displ: -1.36
- CDC25B-CDK2 inh: ·

> CC(COc1ccccc1)NC(C)[C@H](O)c1ccc(O)cc1 (some centres not stated)
- TAR Tat displ: 2.02
- CDC25B-CDK2 inh: ·

> Cc1nc2ccccn2c(=O)c1CCN1CCC(C(=O)c2ccc(F)cc2)CC1
- TAR Tat displ: 0.83
- CDC25B-CDK2 inh: -1.03

> O=C(c1ccc(F)cc1)C1CCN(CCn2c(=O)[nH]c3ccccc3c2=O)CC1
- TAR Tat displ: 1.9
- CDC25B-CDK2 inh: -0.6

> CC(=O)[C@H]1CCC2C3C[C@H](C)C4=CC(=O)CC[C@]4(C)C3[C@@H](O)C[C@@]21C (some centres not stated)
- TAR Tat displ: 0.09
- CDC25B-CDK2 inh: ·

> CCc1ccc(S(=O)(=O)Nc2cccc(-c3cn4c(C)cccc4n3)c2)cc1
- TAR Tat displ: ·
- CDC25B-CDK2 inh: -1.83

> c1ccc(CN(CC2=NCCN2)c2ccccc2)cc1
- TAR Tat displ: 1.49
- CDC25B-CDK2 inh: ·

> COc1ccccc1N1CCN(CCCNc2cc(=O)n(C)c(=O)n2C)CC1
- TAR Tat displ: 1.03&-0.65
- CDC25B-CDK2 inh: -0.73

> CCC(C)n1ncn(-c2ccc(N3CCN(c4ccc(OCC5COC(Cn6cncn6)(c6ccc(Cl)cc6Cl)O5)cc4)CC3)cc2)c1=O (configuration not stated)
- TAR Tat displ: 1.66
- CDC25B-CDK2 inh: ·

> CCCCCCCCCCCCCCC[C@H](O)[C@H](N)CO
- TAR Tat displ: ·
- CDC25B-CDK2 inh: 1.96

> CN1CCN(c2c(C(=O)c3ccccc3)cnc3cc4c(cc23)OCCO4)CC1
- TAR Tat displ: 1.34
- CDC25B-CDK2 inh: -1.32

> C[C@]12CCC(=O)C=C1CC[C@@H]1[C@@H]2CC[C@@]2(C)[C@H]1CC[C@]2(O)C(=O)CO
- TAR Tat displ: ·
- CDC25B-CDK2 inh: -0.35

> Oc1ccc(/C=C/c2cc(O)cc(O)c2)cc1
- TAR Tat displ: 3.3
- CDC25B-CDK2 inh: -1.87

> CC1(C)O[C@H]2CC(=O)OC[C@]23[C@H]2CC[C@@]4(C)[C@H](c5ccoc5)OC(=O)[C@H]5O[C@]54[C@]2(C)C(=O)C[C@@H]13
- TAR Tat displ: 1.09
- CDC25B-CDK2 inh: ·

> COC(=O)C1=C(C)NC2=C(C(=O)c3ccccc32)C1c1cc(Br)ccc1OCC(=O)O (configuration not stated)
- TAR Tat displ: 1.32
- CDC25B-CDK2 inh: -0.46

> CC[N+](C)(CC)CCOC(=O)C(O)(c1ccccc1)C1CCCCC1 (configuration not stated)
- TAR Tat displ: 1.67
- CDC25B-CDK2 inh: ·
